Bioassay records deposited in PubChem BioAssay by National Center for Advancing Translational Sciences (NCATS).
SARS PLP yeast – inhibitors of SARS-CoV papain-like protease in yeast; S. cerevisiae expressing SARS-CoV PLpro, growth rescue; control for the full effect not named in the record; Potency, µM (highest dose often 32.9 µM), for the others: at the top dose activity, positive = growth rescue; actives 0.19% (n = 330,000); AID 485353; active means well fitted rising curve with a large enough effect; inconclusive means small, poorly fitted or top-dose-only effect; inactive means no such curve, though single readings can be large or run the other way; also: 0% is about no effect; nearly all actives have a fitted effect of over 55% in size; growth read by luminescence after 48 h
NS1 inh – inhibitors of influenza NS1 protein function | S. cerevisiae slowed by influenza A NS1, growth recovery by OD600 | Potency, µM (doses to about 46.1 µM), inactives show at the top dose activity, positive = more growth | actives 0.4% (n = 270,000); active means well fitted rising curve with a large enough effect; inconclusive means small, poorly fitted or top-dose-only effect; inactive means no such curve, though single readings can be large or run the other way; also: nearly all actives have a fitted effect of over 50% in size
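Compounds were scored for reversing the slow growth caused by influenza A NS1 in S. cerevisiae, measured by optical density at 600 nm. Assay medium contained 2% galactose at pH 6.0; NS1-free yeast of the same strain were the positive control.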
LASV entry inh – inhibitors of Lassa virus binding or cell entry. Lassa virus pseudotype entry inhibition, cell reporter; control for the full effect not named in the record. Potency, µM (top dose mostly 37.9 µM), for the others: at the highest dose activity change, negative = inhibition, actives largely listed as inhibitors. actives 1.2% (n = 300,000); active means well fitted inhibition curve with a large enough effect; inconclusive means small, poorly fitted or top-dose-only effect, or effect the other way; inactive means flat fitted curve, though single readings scatter; tested in HEK293 cells; also: % is scaled to controls: 0 for no effect and ±100 for the full control effect; nearly all actives have a fitted effect of over 50% in size; luciferase read-out
RE007 growth inh – less growth of the S. pombe RE007 Vpr strain. Potency, µM (series often up to 92.2 µM), inactives show at the highest dose activity change, negative = less growth. actives 0.21% (n = 360,000). S. pombe RE007 Vpr strain, BacTiter-Glo ATP luminescence, 24 h; control for the full effect not named in the record; active = well fitted falling curve with a large enough effect; inconclusive = small, poorly fitted or top-dose-only effect; inactive = no such curve, though single readings can be large or run the other way;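 also: % is scaled to controls: 0 for no effect and ±100 for the full control effect; nearly all actives have a fitted effect of over 50% in size; the assay follows cell death caused by Vpr and the record does not say whether a fall means rescue or toxicity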
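Fission yeast RE007 carrying one integrated HIV-1 vpr copy, seeded at OD 0.01 in PMG+AL medium with 23 nL pinned compound. Grown 24 h at 30 degrees; viability read by BacTiter-Glo luminescence after 5 min.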
Marburg entry inh – inhibitors of Marburg virus binding or cell entry | Potency, µM (doses to about 37.8 µM), inactives show top-dose activity change, negative = inhibition, actives largely listed as inhibitors | actives 1.8% (n = 300,000) | AID 540276 | Marburg virus pseudotyped entry inhibition, cell reporter; control for the full effect not named in the record; about a third of the inactives were read at about 46 µM; active = well fitted inhibition curve with a large enough effect; inconclusive = small, poorly fitted or top-dose-only effect, or effect the other way; inactive = flat fitted curve, though single readings scatter; tested in HEK293 cells; about a fifth of its hits are not listed in these tables; also: % is scaled to controls: 0 for no effect and ±100 for the full control effect; luciferase read-out
Cruzain inh Det – cruzain (T. cruzi) inhibition with detergent | P25779 | purified cruzain, Z-FR-AMC fluorescence, 0.01% Triton | Potency, µM, for the others: max response, negative = inhibition, usual class: inhibitors | actives 0.43% (n = 200,000);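 also: plate controls were neutral wells for no effect and buffer without enzyme for full effect; nearly all actives have a fitted effect of over 40% in size; top concentration of the series not given in the record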
Target sequence (P25779 123-467 limits assumed): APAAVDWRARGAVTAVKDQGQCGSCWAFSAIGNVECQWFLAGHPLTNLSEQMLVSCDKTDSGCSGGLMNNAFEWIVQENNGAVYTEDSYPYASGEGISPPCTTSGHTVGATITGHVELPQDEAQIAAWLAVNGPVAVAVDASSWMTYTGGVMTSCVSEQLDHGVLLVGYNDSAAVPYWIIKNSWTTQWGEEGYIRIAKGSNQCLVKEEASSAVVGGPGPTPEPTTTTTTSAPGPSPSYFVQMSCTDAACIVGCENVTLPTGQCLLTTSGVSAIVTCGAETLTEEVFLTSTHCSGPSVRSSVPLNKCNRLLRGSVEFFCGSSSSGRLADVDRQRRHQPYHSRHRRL
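Z-FR-AMC hydrolysis (2 uM substrate) by cruzain (1.5 nM) monitored kinetically at ex 360/em 450 nm after 15 min room-temperature compound exposure; 0.01% Triton X-100, pH 5.5, 5 mM DTT.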
Cruzain noTriton – blocks cruzain activity in detergent-free assay; AID 1476; Potency, µM, for the others: max response, negative = inhibition, usual class: inhibitors; purified cruzain, Z-FR-AMC fluorescence, no detergent; actives 2.3% (n = 200,000); P25779;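 also: plate controls were enzyme without inhibitor for no effect and buffer without enzyme for full effect; nearly all actives have a fitted effect of over 40% in size; top concentration of the series not given in the record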
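Detergent-free condition (0.00005% Triton X-100) in acetate buffer pH 5.5 with DTT. 1.5 nM enzyme and compound were pre-mixed 15 min, then 2 uM Z-FR-AMC substrate added; reaction progress from fluorescence change between first and third reads (60 s).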
StopGo reporter – FMDV 2A StopGo reporter, luciferase signal; actives 1.2% (n = 410,000); AID 1159524; Potency, µM (top dose mostly 57.9 µM), without a hit: top-dose signal change, negative = less light; human cells with a luciferase reporter of 2A StopGo recoding; control for the full effect not named in the record; active = well fitted falling curve with a large enough effect; inconclusive = small, poorly fitted or top-dose-only effect; inactive = no such curve, though single readings can be large or run the other way; tested in HEK293T cells; also: % is scaled to controls: 0 for no effect and ±100 for the full control effect; nearly all actives have a fitted effect of over 45% in size; luciferase light after 4 h
* marks the source's active call; other numbers are inactive results; u = inconclusive; x = no result given; & = joins results of further samples; [ ] = another dose, or the depositor's remark. Unless noted, calls follow the shape of the dose curve; as a rule, active = well fitted curve in the direction sought with a large enough effect; inconclusive = small, poorly fitted or top-dose-only effect, or another doubt; inactive = no such curve, though single readings can be large; an effect the other way counts as inactive or inconclusive. Potency is read from the fitted curve at half-maximal effect.

SMILES | SARS PLP yeast | NS1 inh | LASV entry inh | RE007 growth inh | Marburg entry inh | Cruzain inh Det | Cruzain noTriton | StopGo reporter
O=C(CCCNC(=O)/C(=C/c1ccc(F)cc1)NC(=O)c1ccccc1)OCc1ccccc1 | 9% | -26% | x | -8% | 0% | -3.2% | 4% | 18%
COc1cc(-c2c(C#N)c(N)nc(SCc3ccncc3)c2C#N)cc(OC)c1OC | -3% | -104% | u | -5% | u | -1.1% | 0% | u
O=C(NCc1ccccc1)C(=O)NCC1OCCCN1S(=O)(=O)c1cccs1 (stereo not given) | 4% | 15% | 21%[46.1 µM] | -5% | -17%[46.1 µM] | x | x | -6%
CCN(CC(=O)Nc1c(F)cccc1F)C(=O)C1CC(=O)N(c2ccccc2OC)C1 (stereo not given) | 4% | 9% | x | -6% | x | x | x | -16%
COc1ccc(-c2nn(-c3ccccc3)cc2C(=O)NC2CCCCC2C)cc1 (stereo not given) | -3% | x | 1% | -1% | 5%[46.1 µM] | x | x | -9%
CCC12CN3CC(C)(CN(C1)C3c1ccc(O)cc1O)C2=O (stereo not given) | x | x | -9%[46.1 µM] | x | 1%[46.1 µM] | 0.0% | -1% | -1%
CC(C)(C)OC(=O)N/N=C\c1ccc(OC(=O)c2cccs2)cc1 | 4% | -24% | -7% | 4% | u | -7.6% | 0% | -23%
CN(Cc1cccc(F)c1)C(=O)c1cc(=O)[nH]c2ccccc12 | 0% | 8% | u | 0% | 6%[46.1 µM] | x | x | 10%
CC1CCCCN1CCNC(=O)CN1C(=O)COc2ccccc21 (stereo not given) | 5% | -5% | -1% | -5% | -23% | 6.5% | -8% | x
O=C1CSC(=S)N1c1ccccc1 | x | x | -8% | -19% | 27% | x | x | -15%
Cc1cc(OCCn2nc(C(=O)O)c3ccccc3c2=O)ccc1C(C)C | -6% | 24% | x | 2% | u | x | x | u
CC(C)c1onc(C(=O)N2CCN(c3ccccc3)CC2)c1[N+](=O)[O-] | -3% | 6% | x | 5% | x | x | x | u
CCO[C@H]1OC(C(=O)NC2CC2)=C[C@@H](c2coc3ccccc3c2=O)[C@@H]1CCCO | 0% | -1% | x | 58% | x | x | x | -20%
CC1CC(=O)c2cnc(N)nc2C1 (stereo not given) | -7% | 8% | 4% | -5% | 12% | -0.4% | -5% | 14%
COC(=O)N/N=C(\C)c1cccc(C(F)(F)F)c1 | -2% | x | 9% | -1% | -1%[46.1 µM] | x | x | 18%
O=C(Nc1ccc(Oc2ccc(Cl)cc2)cc1)c1ncn[nH]1 | -2% | -20% | 12% | -12% | u | -1.6% | -1% | -11%
COc1ccc(-n2c(NC(=O)c3ccc(Br)o3)c(C#N)c3nc4ccccc4nc32)cc1 | 2% | u | x | x | x | -17% | u | x
CC(C)CCNC(=O)CCCC1=NS(=O)(=O)c2ccccc2N1 | 7% | 1% | 7% | 13% | -3% | 0.3% | 14% | 10%
COc1ccc(C2c3c(ccc4ccccc34)Oc3ncn4nc(Cc5ccccc5)nc4c32)cc1OC (stereo not given) | 0% | 0% | -9% | 6% | -19% | -1.6% | u | -16%
C[n+]1ccn(CC(=O)c2ccc(Br)cc2)c1 | 5% | -6% | 10% | -13% | -3% | -0.4% | 4% | -12%
Cc1cc(C(=O)NCc2ccccc2Cl)c2c(C)nn(-c3ccccc3)c2n1 | x | x | 28%[46.1 µM] | x | x | -0.6% | 2% | 3%
CCc1cccc(NC(=O)c2cc(OC)c(OC)c(OC)c2)c1 | -1% | x | 21% | -13% | -4%[46.1 µM] | x | x | -7%
O=c1[nH]c(/C=C/c2ccc([N+](=O)[O-])cc2)c([N+](=O)[O-])c(=O)[nH]1 | u | 11% | x | 6% | x | x | x | -10%
CC(C)NC(=O)NC(=O)COC(=O)CCCSc1nc2ccccc2s1 | 6% | -14% | -3%[46.1 µM] | -4% | u | -5.0% | 3% | -12%
O=C1CN(C(=O)c2ccc(Br)o2)C(c2ccc(F)cc2)c2cc(F)ccc2N1 (stereo not given) | -34% | -6% | -19% | -1% | u | -8.4% | -15% | -13%
COc1cccc(CNC(=O)Cn2nc(C)c3sc4ccccc4c3c2=O)c1OC | x | x | 2%[46.1 µM] | x | -2%[46.1 µM] | -5.3% | -9% | -8%
Cc1noc(C)c1COc1ccccc1C(=O)NNC(=O)C(C)Oc1ccccc1F (stereo not given) | -6% | x | -12%[46.1 µM] | 8% | 5% | x | x | -21%
Cc1nnc(CN(C)C(=O)c2cc(COc3ccc(C)c(C)c3)on2)o1 | 1% | -10% | x | -1% | x | x | x | 22%
Cc1cc(C)c(S(=O)(=O)NC(CC(=O)O)c2cccc([N+](=O)[O-])c2)c(C)c1 (stereo not given) | 8% | x | -22% | -1% | 23%[46.1 µM] | x | x | -15%
CC(O)(C#CCN1CCCCCC1)c1ccccc1 (stereo not given) | 0% | -3% | 3% | 0% | -1%[46.1 µM] | x | x | -6%
CCOC(=O)c1ccccc1NC(=O)N1CCn2c(C)ccc2C1CC (stereo not given) | -3% | -11% | -7% | -27% | u | -4.7% | -12% | u
CCN1CCN(C(=O)C2COc3ccccc3O2)CC1 (stereo not given) | 0% | 8% | x | 6% | x | x | x | -19%
CN(C)S(=O)(=O)N1CCC(n2cnc3cccnc32)CC1 | x | x | 13%[46.1 µM] | x | x | -0.6% | 3% | 8%
Cn1ccs/c1=N\C(=O)Nc1cccc(C(F)(F)F)c1 | -4% | -42% | -26%[46.1 µM] | -6% | -4%[46.1 µM] | x | x | 10%
Fc1ccc(CNc2ccc(CNc3ncn[nH]3)cc2)cc1 | -2% | -5% | 1% | -15% | 7%&7% | -0.5% | -5% | 7%
O=C(NC(Cc1ccccc1)C(=O)O)/C(=C\c1ccc(Cl)cc1)NC(=O)c1ccccc1 (stereo not given) | 1% | 5% | 0%[46.1 µM] | 0% | -7%[46.1 µM] | x | x | 16%
CCNc1oc(-c2ccc(OC)cc2)nc1S(=O)(=O)c1ccc(Br)cc1 | -4% | 1% | u | -8% | -1% | -3.4% | -1% | 14%
COc1ccccc1NC(=O)C(C)OC(=O)CCCc1c[nH]c2ccccc12 (stereo not given) | 0% | x | u | 0% | 1%[46.1 µM] | x | x | -20%
NNC(=O)CNc1cccc(Cl)c1 | 0% | 4% | x | 7% | x | x | x | -7%
COc1ccc2ccccc2c1CNCCN1CCOCC1 | -4% | 2% | x | -4% | x | x | x | -5%
CS(=O)(=O)c1ccc(C(=O)NC2CCCCC2)cc1 | 13% | -8% | -2% | -9% | 21% | -1.3% | -6% | 9%
N#C/C(C(=O)NCc1ccco1)=C1/SC(Cc2ccc(Cl)cc2)C(=O)N1c1ccccc1 (stereo not given) | 5% | 26% | 0% | -2% | 16%&16% | -14% | -3% | 0%
CCOC(=O)c1sc(=NC(=O)c2cccs2)n(C)c1C | 0% | x | -9% | -18% | u | x | x | 35%[activator]
N#C/C(=C\c1cn(-c2ccccc2)nc1-c1cccnc1)c1nnc2n1CCCCC2 | -5% | 4% | 19% | 18% | -23% | -1.0% | u | -7%
O=C(Nc1ccncc1)c1ccc(Cl)c(S(=O)(=O)N2CCCCC2)c1 | -8% | x | u | -6% | u | x | x | u
Cc1cc(C)n2nc(NCc3cccc(Br)c3)nc2n1 | -1% | -5% | 11% | 0% | 10% | -7.5% | -1% | 14%
O=C(Nc1n[nH]c(=S)s1)c1ccc2ccccc2c1 | 0% | 5% | 5%[46.1 µM] | 16% | 11%[46.1 µM] | x | x | 65%[activator]
COc1ccccc1CC(=O)Nc1cc2oc3ccccc3c2cc1OC | -6% | 0% | 4% | -2% | u | 3.4% | -24% | x
COc1ccc(OC)c(NC(=O)C2CCCN(S(=O)(=O)c3cccc4cccnc34)C2)c1 (stereo not given) | 3% | -34% | x | 3% | 4% | 3.2% | 1% | -28%
COC(=O)c1cn(NC(=O)CC2CCCCC2)c(=O)c2ccccc12 | -10% | -7% | 0% | 2% | u | 1.6% | -9% | 5%
CNC(=O)N1c2ccccc2NC(=O)CC1C (stereo not given) | 2% | x | u | -12% | -1%[46.1 µM] | x | x | 8%
Cc1ccc(C(=O)N(CCN(C)C)CC2CCCN(Cc3ccccc3F)C2)cc1C (stereo not given) | 2% | -13% | u | 1% | u | x | x | -22%
Cc1ccc(C(=O)COC(=O)c2cccc(O)c2)s1 | 1% | x | -11% | -5% | 23% | x | x | -11%
COc1cc(C(=O)Nc2nc3ccccc3[nH]2)ccc1OC(F)F | 0% | -8% | u | -10% | u | x | x | -1%
CCn1c(O)c(N=NC(=O)CNc2cccc(C)c2)c2ccccc21 | -2% | 18% | -18% | 15% | -6% | -4.7% | 5% | 27%
CCOCCCn1c(=S)[nH]c2cc(C(=O)NCCN(CC)CC)ccc2c1=O | 1% | 7% | -8% | 9% | u | -0.5% | -4% | -13%
COc1cc(C)c(Cl)cc1S(=O)(=O)NCc1ccncc1 | 16% | -9% | x | x | 1% | 2.8% | 3% | x
O=C(c1ccccc1)N1CCN(CC(O)COC2CCCCC2)CC1 (stereo not given) | 17% | -8% | 6% | 8% | 6% | 2.1% | -5% | -8%
CC(=O)Nc1cc2c(c(Cl)c1Cl)-c1ccccc1C2=O | x | x | 15% | -5% | 20% | x | x | -18%
CC1CCN(c2ncnc3c2cnn3-c2ccccc2)CC1 | -4% | -54% | x | -7% | x | -4.9% | 1% | 13%

(cont.)
SMILES | SARS PLP yeast | NS1 inh | LASV entry inh | RE007 growth inh | Marburg entry inh | Cruzain inh Det | Cruzain noTriton | StopGo reporter
CC(=O)Nc1c(C)nn(-c2ccccc2)c1N1CCC(C(=O)NCc2ccc(F)cc2)CC1 | x | x | 27%[46.1 µM] | x | x | 3.7% | 0% | -10%
CC(C)(C)c1cc(Cl)c(O)c(NC(=S)NC(=O)c2cccnc2)c1 | 2% | x | -20% | -5% | u | x | x | -9%
CSc1nc(C)c(Oc2ccccc2)c(=O)n1C | -1% | -2% | u | 1% | -4% | 9.1% | -4% | 2%
O=c1c2cc(Cl)ccc2oc2nc3n(c(=O)c12)CCCS3 | 2% | 2% | 1% | -7% | 3% | -2.3% | -10% | 0%
